# High-throughput results: PubChem BioAssay, several laboratories
# LANA-H2B inh – blocks KSHV LANA binding to histone H2A/H2B; inhibition, % (no concentration beside the values); 0.6% of 320,000 active; cell-free LANA-H2A/H2B peptide, fluorescence polarization; in the data active = inhibition mostly above about 10%, no sharp cut-off; inactive = mostly below about 6.7%;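 note: stock transfer was 7.5 nL into about 10 µL; 0% = median of vehicle wells and 100% = median of positive control wells; one replicate is shown; the record names a cut of 25% in any replicate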
# T cruzi inh – T. cruzi replication inhibition; T. cruzi beta-gal in NIH3T3, luminescence, 90 h; inhibition, % (test concentration not listed); 1.4% of 300,000 active; AID 1885;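 active = mean inhibition across valid replicates above about 55%, limit read from the data; inconclusive = mean below that limit but half or more replicates reach it; inactive = mean below it, under half of replicates reach it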;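 note: signal also drops with host cell toxicity which is not excluded here; 0% = plate median of DMSO wells and 100% = zero luminescence signal; higher percent means less beta-gal luminescence so fewer parasites; stock transfer was 50 nL into about 50 µL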
# Bfl-1 A1 inh – inhibitors of the anti-apoptotic protein A1, read as caspase activation; MEF A1-2A-BIM cells, Caspase-Glo 3/7 luminescence, 3 h; percent of clofoctol response, vehicle zero; caspase activation, % (concentration not given with the values); 0.066% of 330,000 active; AID 2462;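 active = over half of replicate activation scores above 10%, or exactly half above 10 with the replicate mean above 10; inconclusive = replicate mean below 10 yet half the replicates above 10; inactive = over half of replicates below 10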;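 note: wells of about 30 µL received 50 nL stock; many hits fall short of the cut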
# Vif A3G – HIV-1 Vif–A3G interaction blockers – biochemical, TR-FRET, GST-Vif 1-94, biotin-A3G peptide, dose response retest, primary screen (AID 1117319) | TR-FRET GST-Vif / biotin-A3G peptide binding; higher % means a stronger effect; test concentration not given here; strong numbers were not always called active | one-dose inhibition, %; IC50 in µM for titrated hits | 0.57% of 260,000 active;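 active = above the screen mean plus three standard deviations and confirmed in dose response; inconclusive = results disagree or hit not tested in dose response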;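 note: Vif residues 1-94 fused to GST binding biotinylated APOBEC3G peptide 110-148; 0% = full assay without inhibitor and 100% = GST in place of GST-Vif; retest series ran down from 100 µM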
# AF4-AF9 inh – inhibitors of human MLL-AF4/AF9 interaction; P42568; inhibition, % at 10 µM; AlphaScreen, biotin-AF4 peptide binding to FLAG-AF9; 0.47% of 350,000 active; AID 651704;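 active = every replicate reaching a set inhibition limit, whatever the replicate mean, cut at about 25% in these data; inconclusive = mean inhibition reaches that limit but some replicates miss it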;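 note: 0% = plate neutral control median and 100% = total signal loss; the record names both 10 and 1 µM as test concentration; the first replicate is given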
# Target sequence (P42568 whole entry, looked up): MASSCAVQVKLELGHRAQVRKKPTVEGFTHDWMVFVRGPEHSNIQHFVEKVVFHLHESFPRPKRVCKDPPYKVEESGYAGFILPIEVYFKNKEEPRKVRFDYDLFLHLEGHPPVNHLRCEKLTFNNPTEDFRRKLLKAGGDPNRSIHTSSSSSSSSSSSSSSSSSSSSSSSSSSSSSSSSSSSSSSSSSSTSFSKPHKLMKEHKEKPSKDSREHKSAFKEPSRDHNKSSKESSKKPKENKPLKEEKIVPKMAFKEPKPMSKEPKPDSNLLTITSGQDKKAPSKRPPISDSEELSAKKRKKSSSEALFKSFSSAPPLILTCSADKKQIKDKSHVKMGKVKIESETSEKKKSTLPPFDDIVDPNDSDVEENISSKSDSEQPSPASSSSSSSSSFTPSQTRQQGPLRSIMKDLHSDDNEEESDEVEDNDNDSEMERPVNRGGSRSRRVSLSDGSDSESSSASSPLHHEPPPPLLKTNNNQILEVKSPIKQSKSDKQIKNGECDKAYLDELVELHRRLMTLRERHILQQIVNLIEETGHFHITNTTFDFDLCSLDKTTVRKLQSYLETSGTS
# Beta apoptosis – blocks beta cell apoptosis; AID 435005; protection from apoptosis, % (test concentration not listed); INS-1E cytokine-induced death, ATP luminescence, 48 h; percent of positive-control rescue, neutral wells zero; 0.8% of 300,000 active;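 active = all replicates at 75% or more, or half of them and the mean; inconclusive = half reach 75% but not the mean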;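 note: 0% = cytokine-treated negative control wells and 100% = positive control rescue; higher means more ATP so stronger rescue from cytokine killing; wells of about 40 µL received 100 nL stock; the first replicate is given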
# RanGTP-Imp inh – inhibitors of RanGTP-importin-beta interaction, primary screen, biochemical, FRET, CFP-Ran, YFP-importin-beta, homogeneous | cell-free CFP-Ran/YFP-importin-beta FRET ratio | inhibition, % (test concentration not listed) | 1.1% of 300,000 active | AID 2216;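 active = most replicates above 15%; inconclusive = exactly half above 15%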;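 note: 0% = DMSO wells and 100% = Ran loaded with GDP instead of GTP; wells of about 40 µL received 100 nL stock; the first replicate is given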
# Calb FLC – C. albicans growth modulation with fluconazole; growth inhibition, % (no concentration beside the values); AID 1979; 0.57% of 300,000 active; C. albicans CaCi-2 (fluconazole-resistant clinical isolate) + fluconazole, Alamar Blue growth, 48 h;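 active = most replicates above 75%; inconclusive = exactly half above 75%; inactive = most below 75%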;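 note: all wells also contain fluconazole at 8 µg/ml as a sub-toxic cotreatment; 0% = median of DMSO wells and 100% = median of geldanamycin control wells; wells of about 8 µL received 7.5 nL stock; the first replicate is given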
# Starred values were filed as active, the others as inactive; ? = inconclusive; . = not tested or not shown; & = joins results of further samples.
SMILES,LANA-H2B inh,T cruzi inh,Bfl-1 A1 inh,Vif A3G,AF4-AF9 inh,Beta apoptosis,RanGTP-Imp inh,Calb FLC
CS(=O)(=O)N(CC(=O)NCc1ccc2c(c1)OCO2)c1ccccc1,-0.1,-4,0.6,7%,.,1,5.4,-10
Cc1ccc2c(CN(C)Cc3ccc(OC(F)F)cc3)cc(=O)oc2c1C,0.6,21,-0.1,.,-1.1,7,0.7,7
O=C(N/N=C/c1ccco1)c1cccc(NC(=O)c2cccc(Cl)c2)c1,2.3,10,-0.5,.,-15,-2,-4.0,3
OC(COCC1COc2ccccc2O1)CN1CCCCC1 (stereo not drawn),5.7,21,0.2,?,-4.9,3,0.2,0
C=CCNC(=O)C1CCN(S(=O)(=O)c2cccs2)CC1,3.0,-2,1.7,.,-2.0,.,?,10
Cc1cccc(CN2CCN(CC(=O)O)C2=O)c1,.,-4,.,4%,.,.,-2.4,-7
S=c1[nH]nc(-c2ccncc2)n1/N=C/C=C/c1ccccc1,3.5,3,-0.1,0%,-2.1,-5,2.0,-9
Cc1ccc(C2(c3ccc(C)cc3)CC2C(=O)NCc2cccnc2)cc1 (stereo not drawn),-1.9,-2,-0.3,13%,0.7,5,4.0,-2
O=C(N/N=C1\CCCc2ccccc21)c1ccc([N+](=O)[O-])cc1Cl,-0.8,14,0.4,-1%,.,-5,3.5,14
CCN(CC)S(=O)(=O)c1cccc(-c2nnc(SCCOc3ccccc3C)o2)c1,-3.0,45,0.3,-6%,.,-6,-4.7,-3
COc1cc(O)c(C(C)=O)cc1OC,-13,9,-0.5,.,.,-2,1.0,-3
CCOc1ccc(NC(=O)CSc2nnc(COc3c(C)cccc3C)o2)cc1,-12,7,1.7,3%&-2%,-2.7,1,2.9,-4
CCN1CCN(C(=S)Nc2cccc(Cl)c2)CC1,-2.7,-33,-0.2,3%,-1.1,-6,0.4,-30
CCCc1cc(=O)oc2cc(C)c3c(C)coc3c12,-3.3,23,-0.6,26%,-5.2,4,1.9,30
CC(C)NCc1nnc(-c2ccccc2Cl)o1,1.0,-15,0.1,.,-1.1,2,-0.6,15
Cc1ccc(CNC(=O)CCNS(=O)(=O)c2cccc3nsnc23)cc1,-0.2,0,-0.4,-12%,2.6,2,-0.9,-3
CCOc1ccc(/C=N/NC(=O)C(=O)N2CCCCCC2)c2ccccc12,.,16,.,.,5.8,.,-3.3,-2
CCOC(=O)C1=C(C)N(C)C(=S)NC1c1ccccc1Cl (stereo not drawn),4.6,-17,-1.4,2%,.,.,?,2
C=CCOc1ccccc1CN1CCC(Oc2ccc(C(=O)N3CCCCC3)cc2)CC1,-3.9,18,0.8,.,3.1,2,-1.4,-8
COc1ccc(/C(N)=N/OC(=O)c2ccco2)cc1,0.5,-4,-9.1,-1%,-4.3,6,4.5,-15
CCCCN(CC)CCCNC(=O)c1ccc(CS(=O)(=O)c2ccccc2C)o1,9.3,21,0.0,3%,1.8,-5,-3.3,-1
O=C(c1cccc(NC2=NC3CS(=O)(=O)CC3S2)c1)N1CCN(c2ncccn2)CC1 (stereo not drawn),0.4,2,1.4,.,2.1,-13,2.2,10
O=C(NCc1ccco1)C1CC(=O)N(c2cccc(Cl)c2)C1 (stereo not drawn),-0.5,1,-0.5,1%,-3.4,.,1.0,-4
CCSc1nsc(SCC)c1C(N)=O,-1.2,-3,0.5,-6%,.,3,-1.6,12
O=C1/C(=C\c2ccco2)SC(=S)N1C1CCS(=O)(=O)C1 (stereo not drawn),-0.3,.,1.1,.,12,-11,-2.2,10

# Remaining list, next part.
SMILES,LANA-H2B inh,T cruzi inh,Bfl-1 A1 inh,Vif A3G,AF4-AF9 inh,Beta apoptosis,RanGTP-Imp inh,Calb FLC
Cc1cccc2cc(CN(CC3CCCO3)C(=O)c3cnccn3)c(=O)[nH]c12 (stereo not drawn),.,-17,.,15%,.,.,6.0,6
O=C(O)Cn1c(-c2ccccc2)cc2ccccc21,2.0,-1,1.3,-1%,3.1,-3,?,3
O=C(CC1(O)C(=O)N(CCc2ccccc2)c2ccccc21)c1ccco1 (stereo not drawn),1.0,1,1.0,1%,.,-2,2.8,-29
COC(=O)c1c(-n2cnnn2)sc(C)c1C,3.7,-9,-0.7,6%,.,-2,4.3,-7
CCOC(=O)c1c(NC(=O)CCS(=O)(=O)c2ccccc2)sc2c1CC(C)(C)NC2(C)C,-0.2,13,-0.5,-2%,-0.1,0,3.5,2
Cc1ccc(C)n1-c1sc2c(c1C#N)CCC(C)C2 (stereo not drawn),-1.0,11,0.6,2%,.,-6,-0.5,-2
C/C(=N/NC(=O)c1ccoc1C)c1cccc(NC(=O)C2CC2)c1,2.4,-2,0.1,8%,.,-2,4.8,-7
CCS(=O)(=O)N1Cc2ccccc2CC1C(=O)Nc1nnc(SCc2ccc(F)cc2)s1 (stereo not drawn),3.6,-2,0.1,-2%,.,4,-0.3,-2
O=Cc1cc([N+](=O)[O-])ccc1N1CCOCC1,5.3,16,0.1,12%,-0.2,-2,-0.1,11
O=C(CSc1n[nH]c(-c2ccncc2)n1)Nc1ccccc1Cl,.,2,0.0,.,-0.8,6,5.0,2
O=C(OCc1cccc(F)c1)c1ccc2c(=O)n3c(nc2c1)CCC3,-19,?,-0.5,.,-14,8,3.7,7
O=C(CCCNS(=O)(=O)c1cccs1)N1CCc2ccccc2C1,3.8,-7,-1.1,-3%,.,2,-3.9,2
Nc1nc(C(=O)N2CCOCC2)nn1S(=O)(=O)c1ccc(Cl)cc1,1.0,-14,-0.2,7%,.,-4,-3.5,17
CC(C)C(=O)Nc1ncc2c(n1)CC(c1cccs1)CC2=O (stereo not drawn),5.2,-20,-0.3,4%,.,-3,-1.6,9
COc1ccccc1C(=O)NNC(=O)c1csc(N2CCOCC2)n1,-3.3,-9,-0.6,1%,-0.2,.,0.5,-3
O=C(NNC(=O)c1ccccc1-c1ccccc1C(=O)O)c1cccc([N+](=O)[O-])c1,1.1,1,1.4,3%,4.1,0,4.6,-3
COC(=O)[C@@H](Cc1c[nH]c2ccccc12)NC(=O)CCC(=O)c1ccc(Br)cc1,-0.8,-1,0.5,-5%,4.4,-1,0.7,-3
CC1CCCC(C)N1C(=O)COC(=O)c1cccs1 (stereo not drawn),1.7,.,?,.,-13,-5,.,.
COc1ccc(S(=O)(=O)N/N=C(/C)c2ccco2)cc1,6.2,3,-0.2,2%,0.1,-1,-5.7,12
Cc1ccc(S(=O)(=O)c2nnn3c2nc(N2CCN(c4ccccn4)CC2)c2ccccc23)cc1C,1.4,19,0.2,.,-17,17,1.1,4
CCSc1nnc(-c2cccs2)o1,-1.7,-3,-0.9,6%,.,.,-1.3,-14
Cc1ccc(S(=O)(=O)Nc2cccc3c2O[C@@H](CN(C)C(=O)Nc2ccc4c(c2)OCO4)[C@H](C)CN([C@@H](C)CO)C3=O)cc1,5.6,.,1.9,.,0.7,1,.,.
NC(=O)N1N=C2/C(=C/c3ccccc3)CCCC2C1c1ccccc1 (stereo not drawn),3.4,0,-1.1,.,13,7,1.0,17
COc1ccc(C2(CNC(=O)c3ccc(Br)o3)CCOCC2)cc1,-0.4,-3,1.1,5%,.,2,2.5,9
CCCCN1C(=O)/C(=C2\SC(N3CCOCC3)=NC2=O)c2ccccc21,3.4,-3,1.4,.,1.7,20,-3.2,5

# The list continues.
SMILES,LANA-H2B inh,T cruzi inh,Bfl-1 A1 inh,Vif A3G,AF4-AF9 inh,Beta apoptosis,RanGTP-Imp inh,Calb FLC
COc1ccc2oc(=N)c(C(=O)Nc3ccc(C)cc3)cc2c1,-4.2,0,2.2,.,2.4,-1,-1.9,-1
OC(COCc1cccs1)CN1CCN(c2cccc(C(F)(F)F)c2)CC1 (stereo not drawn),3.6,8,-0.4,30%,.,2,-1.1,-23
O=c1c2ccccc2c(-c2ccccc2)nn1Cc1c(Cl)cccc1Cl,3.6,38,2.7,-3%,.,0,-0.1,61
CCOC(=O)c1ccc(-n2c(O)c(/C=N/NC(=O)C3COc4ccccc4O3)c3ccccc3c2=O)cc1 (stereo not drawn),-2.1,0,-0.6,?,1.3,2,?,-3
C/C=C/C(=O)Nc1cccc(C2=NOC3(C2)C[C@@H](C(N)=O)N(C(=O)C(c2ccccc2)c2ccccc2)C3)c1 (stereo partly drawn),0.5,15,-0.2,15%,1.5,-6,3.1,-1
Brc1ccc(-c2csc(N/N=C/c3cccnc3)n2)cc1,1.4,70*,-0.5,-5%,0.1,3,-3.6,-4
CN(C)S(=O)(=O)c1ccc(NC(=O)CSc2nnc(-c3ccco3)n2N)cc1,-11,.,0.6,2%,-5.0,1,.,.
CC[C@@H]1C=C(C(=O)O)[C@H](c2ccc(Cl)c(Cl)c2)N1S(=O)(=O)c1ccc(C)cc1,-0.8,.,-0.5,-2%,-4.9,-12,.,.
Cc1nc(SCC(=O)Nc2cc(C)on2)c2c(=O)n(C)c(=O)n(C)c2n1,1.4,-14,-0.1,?,2.9,3,-0.7,-4
Cc1cc(NC(=O)c2ccccc2F)on1,4.1,-7,0.1,-7%,-7.2,-2,4.3,11
CCOC(=O)c1cnn(-c2cccc(Cl)c2)c1N,0.0,-3,-1.1,-7%,.,-3,1.6,-23
CCCCC(=O)Nc1ccc(NC(=O)c2ccco2)cn1,11*,5,0.7,.,0.6,3,-2.0,-5
CSc1ncc(Cl)c(C(=O)Nc2cc(C)ccc2C)n1,-8.5,1,0.1,1%,-1.1,-3,-1.2,-5
C#CCOCCOCCOCCNc1nc(N2CCN(C(=O)[C@H](Cc3cc4ccccc4[nH]3)n3cc([C@@H](N)C(C)CC)nn3)CC2)nc(N2CCN(C(=O)[C@H](Cc3cc4ccccc4[nH]3)n3cc([C@@H](N)CC(C)C)nn3)CC2)n1 (stereo partly drawn),0.1,18,-0.1,-5%,.,8,2.8,13
CCCc1c(O)nc(SCCN(CCC)CCC)[nH]c1=O,1.0,0,1.7,1%,.,.,-0.8,-16
COc1cccc(NC(=O)COC(=O)Cc2ccc(Cl)cc2)c1,0.7,.,1.0,.,-0.5,-4,-0.7,9
CC(=O)c1c(NCc2ccccc2)nc(=O)n(-c2ccccc2)c1C,-1.3,-3,-0.7,-3%,.,-4,-0.6,-2
CCC(Sc1nc2cc3c(cc2c(=O)n1Cc1ccco1)OCO3)C(=O)Nc1ccccc1OC (stereo not drawn),6.2,35,2.3,0%&-5%,.,18,-1.1,9
Cc1cc(C)c(NC(=O)Cn2cnc3c(oc4ccccc43)c2=O)c(C)c1,1.7,-4,0.1,10%,-1.8,-5,-3.0,-9
CN(C(=O)COC(=O)c1ccc2c(c1)OCCO2)c1ccccc1,5.0,-2,1.2,-3%,-1.9,-2,-1.1,9
Cc1nc2ccccn2c1C(=O)N/N=C/c1ccc2c(c1)OCO2,6.1,-3,0.1,.,.,2,2.1,5
O=C(N/N=C/c1c[nH]c2ccccc12)C1COc2ccccc2O1 (stereo not drawn),4.1,-29,0.4,.,.,0,0.6,-6
